# BJeLR lethal = BJeLR cell viability loss. BJeLR (HRASV12) viability, CellTiter-Glo ATP luminescence, 48 h; reference of the scale not given here. inhibition, % (test concentration not listed). 300,000 tested, 0.17% active. AID 1554;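 active = replicate mean above 50%; inconclusive = above 50% but judged a plate artefact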;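 note: 50 nL library stock added to about 25 µL; numbers are from one replicate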
# RN4220 kill = S. aureus RN4220 growth inhibition; OD600, 16 h; AID 1259311; 330,000 tested, 0.33% active; inhibition, % (test concentration not listed);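 active = z-score of -3 or lower and OD600 up to 0.18 on both plates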;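 note: plate controls were untreated cells for no effect and reference antibiotic for full effect; stock transfer was 100 nL into about 80 µL; one replicate is shown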
# PrP UTR inh = inhibition of PrP 5' UTR reporter expression. cell-based PrP 5' UTR mRNA reporter, plate reader. inhibition, % (test concentration not listed). 340,000 tested, 0.35% active;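 active = every replicate at 50% or more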;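 note: 0 = median of the neutral control wells; tested in H4 reporter cells; numbers are from one replicate; inactives centre near -14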
# Autofluor counter = compound fluorescence in toxin protease inhibitor counterscreen; compound autofluorescence counterscreen, microsphere flow cytometry; stronger effect = higher value; AID 624483; fluorescence intensity (concentration not given with the values); 360,000 tested, 3.1% active;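 active = at least 3 SD above the mean of all compounds, about 16000 in these data; inconclusive = too few beads counted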;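 note: 100 nL of 1 mM stock went into each well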
# Mtb hypoxia inh = Mtb hypoxia fluorescent reporter inhibition | M. tuberculosis hypoxia-regulated fluorescent reporter, fluorescence | fluorescence inhibition, % (test concentration not listed) | 300,000 tested, 0.1% active;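 active = 35 to 45% if threefold the growth effect, above 45% if 1.5-fold the growth effect; inactive = the rest, general growth blockers included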;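 note: wells of about 50 µL received 100 nL stock; 0% = vehicle wells and 100% = reference inhibitor wells; whole bacteria with a GFP reporter of the hypoxia response; strong numbers were not always called active; many hits fall short of the cut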
# ugtP null kill = growth inhibition of S. aureus ugtP deletion strain | S. aureus RN4220 ugtP deletion, OD600 growth, 16 h; some inactives read as strong as hits | growth inhibition, % (concentration not given with the values) | 330,000 tested, 0.54% active;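 active = z-score under -3 and OD600 up to 0.15 on both plates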;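 note: plate controls were untreated wells for no effect and antibiotic for full effect; wells of about 80 µL received 100 nL stock; the first replicate is given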
# Mtb hypoxia inh growth = second read-out of Mtb hypoxia inh, no call of its own (marks repeat the call); growth inhibition, %; measured here: M. tuberculosis growth (absorbance);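 0% = vehicle and 100% = reference antibiotic; read after six days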
# An asterisk follows results filed as active; ? = inconclusive; . = not tested or not shown; & = joins results of further samples.
1. O=C(COC(=O)c1ccccc1F)Nc1cccnc1Cl
2. CCCCn1cnc2c(oc3nc4c(cc32)CCCC4)c1=O
3. COc1ccc(C(=O)C(C)Oc2cccc(NC(=O)c3cccc([N+](=O)[O-])c3)c2)cc1 (centres undefined)
4. C=CCNC(=O)c1onc(CSc2ccc(F)cc2)c1C(=O)O
5. Cc1nc2ccccc2c(=O)n1-c1ccc(NS(=O)(=O)c2cc(F)ccc2F)cc1
6. O=C(NCC(=O)N1CCOCC1)c1ccc(Cl)cc1
7. Cc1ccc(NS(=O)(=O)c2ccc(C(=O)N3CCC3)cc2)cc1
8. COc1ccc(N2CCN(C(=O)CSc3nc4ccccc4c(=O)[nH]3)CC2)cc1
compound no.	1	2	3	4	5	6	7	8
BJeLR lethal	-4	-3	-2	-3	-3	-13	0	0
RN4220 kill	2.5	-0.7	-4.6	8.4	0.2	2.8	1.7	5.0
PrP UTR inh	-12	-58	-23	1	-2	-17	-23	-8
Autofluor counter	4957	3868	11448	2913	?	5887	?	3851
Mtb hypoxia inh	2	10	4	2	2	9	-1	10
Mtb hypoxia inh growth	-1	9	5	4	-8	-7	5	10
ugtP null kill	1	-2	-16	7	-1	4	4	4

# Only RN4220 kill, for 3 of the compounds above:
cpd | structure | RN4220 kill
2 | CCCCn1cnc2c(oc3nc4c(cc32)CCCC4)c1=O | -0.7
3 | COc1ccc(C(=O)C(C)Oc2cccc(NC(=O)c3cccc([N+](=O)[O-])c3)c2)cc1 (centres undefined) | -4.6
4 | C=CCNC(=O)c1onc(CSc2ccc(F)cc2)c1C(=O)O | 8.4

# Continued:
9. CCN(CCCNC(=O)CN1C(=O)COc2ccccc21)c1ccccc1
10. Cc1cc(S(=O)(=O)N2CCN(CC(=O)N(C)Cc3ccccc3)CC2)ccc1Br
11. Cc1ccc(/C(CSc2nccn2-c2ncc(C(F)(F)F)cc2Cl)=N\O)cc1
12. N#CCCN1CCN(S(=O)(=O)c2ccc(S(=O)(=O)NCc3ccccc3)cc2)CC1
13. O=C(O)C1CCCCC1C(=O)NCc1ccccc1 (centres undefined)
14. CCC(OC(=O)c1nsc(Cl)c1Cl)C(=O)NCCc1ccccc1 (centres undefined)
15. C=CCn1c(N2CCN(c3ccc(OC)cc3)CC2)nc2c1c(=O)n(C)c(=O)n2C
16. Cc1cccc(NC(=O)NC2CCCCCCC2)c1C
compound no.	9	10	11	12	13	14	15	16
BJeLR lethal	.	.	4	-1	-10	-7	4	.
RN4220 kill	1.2	14	.	2.9	-2.1	7.0	12	5.3
PrP UTR inh	-15	-22	-23	-4	-85	-9	-24	-4
Autofluor counter	5098	7348	2910	5632	5715	6021	3789	5610
Mtb hypoxia inh	4	14	.	.	-22	4	0	7
Mtb hypoxia inh growth	1	1	.	.	-14	-1	-4	11
ugtP null kill	7	2	.	4	-10	-5	8	-1

17. COc1ccc(CC(=O)N(C)CC(=O)Nc2ccc(F)cc2)cc1S(=O)(=O)N1CCOCC1
18. S=c1nc(C2COc3ccccc3O2)[nH][nH]1 (centres undefined)
19. CCNc1nc2c(c(=O)[nH]c(=O)n2C)n1CC(C)C
20. O=C(CSc1ccc(-c2cccnc2)nn1)Nc1ccccc1F
21. Cc1cc(Cl)c2ccc3ccccc3c2n1
22. CC1(C)N=C(N)NC(Nc2ccccc2)=N1
23. COc1ccc(Cl)cc1NC(=O)C1CC(=O)N(C2CCCCC2)C1 (centres undefined)
24. N#Cc1ccsc1NC(=O)CN1CCN(S(=O)(=O)c2ccc3ccccc3c2)CC1
compound no.	17	18	19	20	21	22	23	24
BJeLR lethal	.	4	-9	-4	2	0	9	13
RN4220 kill	4.6	6.8	2.3	0.8	2.9	7.1	2.2	2.7
PrP UTR inh	-13	-51	-31	-19	14	-15	-8	-6
Autofluor counter	3527	2478	5597	.	4385	4552	6339	10674
Mtb hypoxia inh	10	6	6	11	1	18	2	7
Mtb hypoxia inh growth	0	5	1	7	8	21	8	3
ugtP null kill	5	-1	5	11	-3	7	4	3

25. Cc1ccc(OCCn2cc(/C=C3\C(=O)NN(c4ccccc4)C3=O)c3ccccc32)cc1
26. CN(C)C(CNC(=O)c1ccc(S(=O)(=O)Nc2ccccc2F)cc1)c1ccco1 (centres undefined)
27. O=C(CN1C(=O)NC2(CCCC2)C1=O)NNC(=O)c1ccc(F)cc1
28. CC(C)CC1Nc2ncnc(N3CCOCC3)c2N(Cc2ccc(Cl)cc2)C1=O (centres undefined)
29. CCOc1ccc(N2CC(C(=O)Nc3nnc(Cc4ccccc4)s3)CC2=O)cc1 (centres undefined)
30. O=C(CN1C(=O)NC2(CCCCCCC2)C1=O)NC1CCCc2ccccc21 (centres undefined)
31. COc1ccc2nc(SCC(=O)Nc3ccc(S(=O)(=O)Nc4nccc(C)n4)cc3)[nH]c2c1
32. CC(C)(C)NC(=O)CSc1nnc(CN2CCCCCC2=O)n1-c1ccccn1
compound no.	25	26	27	28	29	30	31	32
BJeLR lethal	2	.	5	.	4	15	0	-2
RN4220 kill	1.6	2.1	2.9	-3.7	-5.6	1.7	2.5	4.7
PrP UTR inh	-16	-8	-4	-11	-11	-11	7	12
Autofluor counter	3943	3648	5581	3887&6105	5362	1989	15695	3284
Mtb hypoxia inh	-4	5	6	-12	-6	3	19	7
Mtb hypoxia inh growth	-6	-3	9	0	5	3	13	1
ugtP null kill	-13	7	1	-18	15	2	8	7

33. CC(=O)N/C(=C/c1ccc([N+](=O)[O-])cc1)C(=O)O
34. COc1cccc(CNCCc2c[nH]c3ccccc23)c1OCc1ccccc1F
35. Cc1ccc(C)c(NC(=O)COc2coc(CN3CCc4ccccc4C3)cc2=O)c1
36. Cc1ccc(N2CC(C(=O)Nc3ccccc3OC(F)F)CC2=O)cc1 (centres undefined)
37. Cc1cc(NC(=O)CSc2nc(C3CC3)nc3sc4c(c23)CCC(C)C4)no1 (centres undefined)
38. CN1CCN(CC(=O)N(C)c2nc(-c3ccccc3)cs2)CC1
39. CCN(CC)C(=O)CSc1nnnn1-c1ccc(F)c(Cl)c1
40. CC(=O)NC(CC(=O)OCC(=O)c1cc(C)ccc1C)c1ccccc1 (centres undefined)
compound no.	33	34	35	36	37	38	39	40
BJeLR lethal	6	-2	4	.	-5	8	-3	.
RN4220 kill	-3.1	0.5	-0.3	4.0	1.7	-1.9	5.6	2.5
PrP UTR inh	-25	-24	-11	-14	.	-47	-38	-14
Autofluor counter	3508	11031	5160	3569	.	4261	4154	3614
Mtb hypoxia inh	-8	-1	8	1	-3	.	21	8
Mtb hypoxia inh growth	-7	3	1	13	-3	.	15	2
ugtP null kill	-1	-25	10	4	1	-2	5	0

# Of the compounds above, these contain a thiophene ring, fused or not.
24. N#Cc1ccsc1NC(=O)CN1CCN(S(=O)(=O)c2ccc3ccccc3c2)CC1
37. Cc1cc(NC(=O)CSc2nc(C3CC3)nc3sc4c(c23)CCC(C)C4)no1 (centres undefined)
compound no.	24	37
BJeLR lethal	13	-5
RN4220 kill	2.7	1.7
PrP UTR inh	-6	.
Autofluor counter	10674	.
Mtb hypoxia inh	7	-3
Mtb hypoxia inh growth	3	-3
ugtP null kill	3	1

# The listing continues.
41. CSc1nnc(Cn2c(=O)sc3ccccc32)n1-c1cccc(Cl)c1
42. CC(C)CC(=O)OCC(=O)Nc1ccccc1Sc1ccccc1
43. OC1CC(c2ccco2)NC2(CCCCC2)C1 (centres undefined)
44. CC(C)(C)OC(=O)N1CCCN(C(=O)c2ccc(Cl)cc2)CC1
45. N#Cc1ccc(NC(=O)COC(=O)C2=COCCO2)cc1
46. CCN1CCN(S(=O)(=O)c2ccc(Cl)c(C(=O)N(C)Cc3ccc(C(C)(C)C)cc3)c2)CC1
47. Cc1c(C(=O)NCc2cccnc2)oc2ccc(S(=O)(=O)N3CCCCCC3)cc12
48. COC(=O)c1c(NC(=O)CC2Sc3ccc(C(F)(F)F)cc3NC2=O)sc(C)c1C (centres undefined)
compound no.	41	42	43	44	45	46	47	48
BJeLR lethal	-8	3	0	4	5	.	-9	0
RN4220 kill	12	4.0	-1.2	1.3	-3.6	3.4	1.0	1.6
PrP UTR inh	-13	-15	4	-22	-5	-28	-21	-6
Autofluor counter	10822	2676	3407	4373	3247	4262	9287	2162
Mtb hypoxia inh	6	3	.	12	5	-4	4	3
Mtb hypoxia inh growth	1	-4	.	5	13	6	5	-3
ugtP null kill	-1	12	-1	1	-2	9	-4	5

49. CCN(c1ccccc1)S(=O)(=O)c1cccc(C(=O)N(C)CC(=O)Nc2ccc(F)c(F)c2F)c1
50. Cc1ccc(-c2[nH]c3cc(C(N)=O)ccc3c(=O)c2O)cc1
51. O=C(CN1CCN(c2cnn(-c3ccccc3)c(=O)c2Cl)CC1)NC1CCS(=O)(=O)C1 (centres undefined)
52. O=S(=O)(c1ccccc1)N1CCC(O)(CN2CCN(c3ccccc3)CC2)CC1
53. CN(CC(=O)Nc1ccccc1Cl)C(=O)COC(=O)CSc1ccc(Cl)cc1
54. CC(C)(C)c1cc(NC(=O)c2ccco2)no1
55. CSc1ccc(CCNC(=O)c2ccc(CS(=O)Cc3ccccc3Cl)o2)cc1 (centres undefined)
56. CC(C)CCn1c(=S)[nH]c2ncccc2c1=O
compound no.	49	50	51	52	53	54	55	56
BJeLR lethal	.	8	.	1	.	-7	2	-19
RN4220 kill	4.6	.	0.7	1.0	4.3	3.3	2.0	4.4
PrP UTR inh	-8	-18	-20	-15	10	-14	-5	-31
Autofluor counter	3769	3296	5825	3761	6460	5608	5149	3692
Mtb hypoxia inh	4	.	9	-4	0	10	8	-58
Mtb hypoxia inh growth	-2	.	12	2	-4	-4	14	26
ugtP null kill	-2	.	3	13	9	0	0	0

57. C=CCn1c(SCC(=O)Nc2ccc3c(c2)OCO3)nnc1-c1cc(Br)ccc1O
58. Cc1cc(C(=O)N2CCCC(C(=O)c3ccc4ccccc4c3)C2)nn1C (centres undefined)
59. CC(C)NC(=O)C1CCCN(S(C)(=O)=O)C1 (centres undefined)
60. CCOC(=O)CSc1ncc(-c2ccc([N+](=O)[O-])cc2)[nH]1
61. Cc1ncc(CO)c2c1OC(C)(C)OC2
62. CCOc1cc(/C=C2\C(=N)N3N=CSC3=NC2=O)ccc1OS(=O)(=O)c1ccccc1
63. COCCN(Cc1cc2cc(C)ccc2n2nnnc12)C(=S)Nc1ccccc1C
64. c1ccc(Nc2ncnc3sc4c(c23)CCC4)cc1
compound no.	57	58	59	60	61	62	63	64
BJeLR lethal	-15	2	-4	-1	21	2	-5	-4
RN4220 kill	-0.7	5.7	4.7	2.8	2.6	.	4.6	0.9
PrP UTR inh	-14	-2	-6	-16	-5	1	-18	7
Autofluor counter	24540*	4956	7752	2513	5894	?	3077	5427
Mtb hypoxia inh	7	12	8	2	11	.	10	1
Mtb hypoxia inh growth	8	0	15	2	8	.	-2	9
ugtP null kill	-11	0	5	11	10	.	4	-6

65. Cc1ccccc1NC(=O)Nc1ccccc1Br
66. CCn1cc(CN2CCC(n3nccc3NC(=O)c3ccccc3OC)CC2)cn1
67. COc1ccc(N2CCN(Cc3cc4c(cc3O)CCC4)CC2)cc1
68. COc1cccc(CC2(CO)CCCN(Cc3[nH]c4ccc(C)cc4c3C)C2)c1 (centres undefined)
69. O=C(CCl)N(C/C=C/c1ccccc1)c1ccc2c(c1)OCCO2
70. COc1ccc(CCNC(=O)COC(=O)c2cc(OC)c(OC)cc2OC)cc1
71. CCOC(=O)Nc1ccc2c(c1)N(C(=O)CN)c1ccccc1CC2
72. CC(=O)NCCNS(=O)(=O)c1ccc(C)c([N+](=O)[O-])c1
73. Clc1ccc(OCc2nc3ccccc3[nH]2)cc1
74. COC(=O)/C(=C\Nc1ccc(Cl)cc1Cl)NC(=O)c1ccc(Cl)cc1Cl
75. O=C(Nc1nccs1)C1CCN(S(=O)(=O)c2cccnc2)CC1
compound no.	65	66	67	68	69	70	71	72	73	74	75
BJeLR lethal	2	-2	8	-2	5	2	-3	5	1	4	-5
RN4220 kill	4.6	-0.4	12	-2.3	21	2.7	-2.5	0.7	0.6	.	1.3
PrP UTR inh	-29	2	-8	-8	-48	-17	-11	-9	-64	-17	-18
Autofluor counter	5228	5427	22399*	5516	3771	4843	3512	3837	4641	2608	5921
Mtb hypoxia inh	6	-13	7	0	14	0	-24	8	3	.	4
Mtb hypoxia inh growth	15	-6	14	-1	21	1	-10	3	14	.	2
ugtP null kill	4	1	-6	-6	4	2	3	9	3	.	4
